# TAR Tat displ = HIV-1 TAR-Tat binding disruption; HIV-1 TAR RNA, Tat peptide displacement FRET; active compounds read high; z-score (test concentration not listed); 100,000 compounds, 0.6% hits; AID 1259389;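 also: score is relative to mean and SD of negative controls; some compounds called inactive have numbers as strong as hits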
# CDC25B-CDK2 inh = human CDC25B-CDK2/CyclinA binding inhibition | P30305+P24941 | HTRF CDC25B-CDK2/CyclinA binding, anti-His/anti-Flag; active compounds read high | z-score (no concentration beside the values) | 94,000 compounds, 0.72% hits;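 also: score is relative to mean and SD of negative controls; strong numbers were not always called active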
# The depositor's hits bear a star; x = not tested or not shown.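 The calls were made as follows: active = z-score from 3 up in half or more of its runs; inactive = the rest.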
# The line under a structure holds: TAR Tat displ, CDC25B-CDK2 inh
- O=C(NCc1nnnn1-c1ccccc1)Nc1ccccc1F
 : -0.05, x
- CCCNc1nc(NCCc2cccs2)c2cnn(C)c2n1
 : 2.2, x
- CC1(C)CC(=O)C2=C(C1)Nc1nc(SCc3ccccc3F)[nH]c(=O)c1C2c1cccs1 (stereo unspecified)
 : x, -0.52
- O=C(NCc1ccc2c(c1)OCO2)c1cc2c(s1)CS(=O)(=O)C2
 : 1.4, -2.2
- O=C(NCc1ccc2ncccc2c1)NC1CCCCC1
 : -1.1, x
- CN(C(=O)C(=O)Nc1ccc2nc3n(c(=O)c2c1)CCCCC3)c1ccccc1F
 : 1.4, 0.47
- COc1ccc(-c2nc3n(n2)C(c2ccc(OC)c(OC)c2)C2=C(CC(C)(C)CC2=O)N3)cc1OC (stereo unspecified)
 : 1.2, -0.87
- CC1CC(=O)Nc2ccccc2N1C(=O)c1sc2ccccc2c1Cl (stereo unspecified)
 : x, 0.22
- CCCCN1C(=O)c2cc(C(=O)NCc3ccco3)nn2CC1(C)C(=O)NC1CCCC1 (stereo unspecified)
 : 1.1, x
- CCCCCCCNC1CC(=O)N(c2ccc(F)cc2)C1=O (stereo unspecified)
 : -0.19, -0.62
- Cc1ccc2c(c1)-c1onc(C(=O)N3CCC(c4ccccc4)C3)c1CO2 (stereo unspecified)
 : 1.4, x
- COc1ccccc1NC(=O)c1cncc(C#Cc2ccccc2)c1
 : x, -0.48
- Fc1cccc(C2NC(=S)NC3=C2N2CCC3CC2)c1 (stereo unspecified)
 : x, 3.6
- CCCCCc1c(C)nc2nc(SCC)[nH]n2c1=O
 : -1.1, -1.1
- COC(=O)c1ccc(C(=O)Nc2c(C(N)=O)oc3ccccc23)cc1
 : -1.3, 0.62
- Cc1cc(F)ccc1S(=O)(=O)NCCc1csc2nc(-c3ccc(Cl)cc3)nn12
 : 0.29, x
- CCOC(=O)C(CC)n1nc(C)c2sc3ccccc3c2c1=O (stereo unspecified)
 : 1.8, 0.13
- CCN(CC)CCOC(=O)c1cc(Cl)c(N)cc1OC
 : x, -1.4
- CC1CC(C)CN(C(=O)C2CCN(S(=O)(=O)c3ccc4c(c3)oc(=O)n4C)CC2)C1 (stereo unspecified)
 : x, -0.8
- O=C(C1CCCN(S(=O)(=O)N2CCCCC2)C1)N1CCN(c2ncccn2)CC1 (stereo unspecified)
 : 1.2, x

# Grouped by structure: those above containing an aryl methoxy group
# The line under a structure holds: TAR Tat displ, CDC25B-CDK2 inh
- COc1ccc(-c2nc3n(n2)C(c2ccc(OC)c(OC)c2)C2=C(CC(C)(C)CC2=O)N3)cc1OC (stereo unspecified)
 : 1.2, -0.87
- COc1ccccc1NC(=O)c1cncc(C#Cc2ccccc2)c1
 : x, -0.48
- CCN(CC)CCOC(=O)c1cc(Cl)c(N)cc1OC
 : x, -1.4

# Remaining list, next part
# The line under a structure holds: TAR Tat displ, CDC25B-CDK2 inh
- COc1ccc(Cl)cc1NC(=O)N1CCn2c(C)ccc2C1C(C)C (stereo unspecified)
 : 0.95, x
- Cc1c(NC(=O)c2nn(-c3cccc(Cl)c3)ccc2=O)c(=O)n(-c2ccccc2)n1C
 : 0.53, -0.15
- Cc1nn(CC(=O)NC2CCCCC2C)c(=O)c2cc3occc3n12 (stereo unspecified)
 : 1.3, -0.48
- COCCn1cnc2scc(-c3ccccc3)c2c1=O
 : 0.11, -1.6
- C[C@]12CC(=O)C3C(CC[C@@H]4C[C@H](O)CC[C@]34C)C1CC[C@]2(O)C(=O)CO (stereo partly specified)
 : 3.6, x
- CCOc1ccc(NC(=O)CSc2nn3c(=O)c(C)nnc3s2)cc1
 : 3, x
- Cc1nc2ccc(S(=O)(=O)NCC(=O)NCCC(C)C)cc2s1
 : 1.2, -1.8
- CC(C)Nc1nc2ccccc2n2cnnc12
 : 0.48, 0.03
- CC1CCC2C(=O)N(c3cccc(Cl)c3)C(=O)C2C1 (stereo unspecified)
 : x, -1.8
- Cn1ccnc1S(=O)(=O)/C(C#N)=C/c1ccc2c(c1)OCO2
 : x, -0.77
- O=C(Oc1ccccc1NC1=NS(=O)(=O)c2ccccc21)c1ccco1
 : x, -1.1
- Clc1ccccc1CN1CCc2nc(N3CCN(c4ncccn4)CC3)ncc2C1
 : -0.85, x
- O=S1(=O)N=C(c2ccccc2Cl)Nc2ccc(S(=O)(=O)N3CCCCC3)cc21
 : -0.9, x
- COc1cc(N2CCn3c(nc4ccccc43)C2)ccc1NC(=O)NC1CCCCC1
 : -8, 1.2
- Cc1nn2c(C(F)(F)F)cc(-c3ccncc3)nc2c1-c1ccc(Cl)cc1
 : 1.8, -2.9
- Cc1ccc(S(=O)(=O)NCCc2csc3nc(-c4ccccc4C)nn23)c(C)c1
 : 1.3, x
- CC1CCCCC1NC(=O)c1cc2c(s1)-c1ccc(Cl)cc1S(=O)(=O)C2 (stereo unspecified)
 : 0.72, -10
- Cc1ccn2c(-c3csc(Nc4ccc(O)cc4)n3)c(C)nc2c1
 : -1.4, -1.7
- CCN1CCN(c2cc3c(cc2F)c(=O)c(S(=O)(=O)c2cccc(Cl)c2)cn3C)CC1
 : 1.2, x
- Clc1ccc(CN2CCc3nc(N4CCN(c5ncccn5)CC4)ncc3C2)cc1
 : 1.1, x
- CC1(C)CC(=O)C2=C(C1)Nc1cc(C(=O)c3ccccc3)ccc1NC2c1ccc(F)cc1 (stereo unspecified)
 : 0.33, -0.84
- Cc1ccc(-c2oc3ccccc3c(=O)c2O)cc1
 : 1.5, 0.17
- CCCc1nn2c(=O)cc(COC(=O)C3CCCCC3)nc2s1
 : -0.31, x
- CCCN(CCC)S(=O)(=O)c1ccc(C(=O)N2CC3CCC(CC3)C2)cc1
 : x, -1.6
- CC(=O)Nc1cccc(N2C(=O)c3c(C)nc4ccccc4c3C2=O)c1
 : -2.1, 1.4
- O=C(C1CCCN1S(=O)(=O)c1cccc2cccnc12)N1CC=C(c2ccccc2)CC1 (stereo unspecified)
 : -1.1, -1.2
- O=C(Nc1ccc(F)cc1F)c1cccs1
 : 2, -1.2
- CC(=O)N1CCc2cc(Br)cc(S(=O)(=O)N3CCCC3c3cc(C)on3)c21 (stereo unspecified)
 : 1.1, x
- Cc1ccccc1C1CC(=O)NC(SCC(=O)OCc2ccccc2)=C1C#N (stereo unspecified)
 : 1.3, -1.1
- COc1cc2c(c(OC)c1)C(c1cc3c(cc1Br)OCO3)CC(=O)N2 (stereo unspecified)
 : -0.54, -0.82
- O=C(CSc1nccn(-c2ccc(F)cc2)c1=O)Nc1ccccc1F
 : -0.64, x
- CN(CC(=O)N1CCCCC1)S(=O)(=O)c1cc2c(cc1Cl)NC(=O)CO2
 : 2.1, x
- CC(NC(=O)CCS(=O)(=O)c1ccc2c(c1)oc(=O)n2C)c1ccc2c(c1)OCCO2 (stereo unspecified)
 : 0.96, x
- CC1=C(C(=O)OCc2ccccc2)C(c2ccc(O)cc2)C2=C(CC(C)(C)CC2=O)N1 (stereo unspecified)
 : 1.8, -1.7
- CC1CC(=O)Nc2cc(S(=O)(=O)Nc3ccc(F)c(F)c3)ccc2S1 (stereo unspecified)
 : 0.94, x
- Cc1noc(C)c1S(=O)(=O)NCCc1sc2nc(-c3ccc(Cl)cc3)nn2c1C
 : 0.54, x
- Cc1ccc(C(C)C)c(OCCCn2cnc3ccccc32)c1
 : 0.92, -2.1
- CCN(CC)c1cccc(OC2=NS(=O)(=O)c3ccccc32)c1
 : x, -0.92
- CN1C(=O)Cc2cc(S(=O)(=O)NC3CC3)ccc21
 : 3, x
- CCc1nnc2sc(C3COc4ccccc4O3)nn12 (stereo unspecified)
 : -0.17, -0.15

# Continuation.
SMILES | TAR Tat displ | CDC25B-CDK2 inh
O=C(NCc1cccs1)C1CC(c2ccc(F)cc2)=NO1 (stereo unspecified) | 1.5 | 0.43
CCc1ccc(Nc2c(-c3ccc4c(c3)CCCC4)c(=O)c2=O)cc1 | -1 | x
CCN(CC)c1nn2c(=O)c(C(=O)NCCC3=CCCCC3)cnc2s1 | 1.5 | x
CC1CCCN(C(=O)CN(C)S(=O)(=O)c2ccc3c(c2)C(C)(C)C(=O)N3C)C1 (stereo unspecified) | 0.68 | x
CN(CCO)c1c[nH]c(=O)[nH]c1=O | -0.14 | -1.6
CCOC(=O)C(C)Sc1nc(-c2ccco2)nc2c1c(=O)n(C)c(=O)n2C (stereo unspecified) | x | -1.1
O=C(Nc1cc(-c2ccc(F)c(F)c2)no1)c1ccc(Cl)cc1 | 1.4 | 0.29
CCOc1ccc(N2C=Nc3ccc(OCC)cc3C2)cc1 | x | -1
CCN1CCC2(CC1)OC(=O)C(C)=C2C(=O)Nc1c(F)cc(F)cc1Br | -0.58 | x
Cc1noc(C)c1S(=O)(=O)NC(C)C | 1.9 | x
CC1(C)Cc2c(c(-c3ccco3)nc3sc4c(N5CCOCC5)ncnc4c23)CO1 | 2.1 | -0.59
COc1ccc(NS(=O)(=O)c2cc(-c3onc(C)c3C)ccc2C)c(OC)c1 | 1.2 | x
Cc1ccc(-c2nnc(C3CCN(S(=O)(=O)c4ccc(C)cc4C)CC3)o2)cc1 | 1.3 | -1.8
COc1ccc(Nc2nc(NCc3ccccc3)nc(N)c2[N+](=O)[O-])cc1 | 0.91 | x
COc1ccc(-c2cc(C)no2)cc1S(=O)(=O)NCC1CCN(Cc2ccc(C)cc2)C1 (stereo unspecified) | 0.26 | x
O=C(CCc1nnc2ccc(N3CCCC3)nn12)Nc1cc(F)ccc1F | 2.3 | x
COC(=O)c1ccccc1Sc1c(-c2ccccc2)nc2ccccn12 | x | -2.1
Clc1cccc(-n2ncc3c(NCCCn4ccnc4)ncnc32)c1 | 0.32 | x
Cc1ccc(-c2noc(CSc3nc(C)cc(=O)[nH]3)n2)cc1 | 0.57 | 0.69
Oc1ccccc1-c1nc(/C=C/c2cccs2)no1 | 0.79 | -1.9
COc1ccc(OC/C(N)=N/C(=S)Nc2cccc(C(F)(F)F)c2)cc1 | x | -0.79
COCCNc1oc(-c2ccc(F)cc2)nc1C#N | 0.51 | -0.47
Cc1c(C(=O)O)oc2c1-c1nn(Cc3c(F)cccc3Cl)cc1CC2 | 1.6 | -0.12
O=C(Cn1ncn2c(cc3sccc32)c1=O)NC1CC1 | x | -0.89
O=C(O)CCSc1ncn[nH]1 | 1.4 | x
CC1(C)CC(=O)C2=C(C1)Nc1nc(SCC(=O)c3ccc(F)cc3)nn1C2c1ccccc1 (stereo unspecified) | -0.31 | -1.4
COC(=O)C(C)Oc1cc(OC(C)C(=O)OC)c2c(-c3ccccc3)cc(=O)oc2c1 (stereo unspecified) | x | -2
CCOc1ccc(CN2CCc3nc(N4CCN(CC)CC4)ncc3C2)cc1OC | 1.7 | x
COc1cccc(-c2nc(-c3ccc(-c4ccccc4)nc3OC)no2)c1 | 1.6 | 0.16
CCOC(=O)N1CCC(Nc2c(NC3CCC(C)CC3)c(=O)c2=O)CC1 (stereo unspecified) | -0.61 | -1.7
CC(C)C1=CC23CCC4C(C)(C(=O)O)CCCC4(C)C2CC1C1C(=O)N(c2cccc(C(=O)O)c2)C(=O)C13 (stereo unspecified) | x | -2.1
COc1cc(C2CC(=O)NC3=C2C(=O)CC(C)(C)C3)c(OC)cc1Br (stereo unspecified) | 1.1 | -0.79
COc1ccc(OC)c(NC(=O)Cn2cnc(S(=O)(=O)N3CCCC3)c2)c1 | 1 | x
CCC(C(=O)NC1CCCC(C)C1C)n1nc(C)n2c(cc3sccc32)c1=O (stereo unspecified) | 1.1 | 0.01
COc1cc(CNCCSc2nnnn2-c2ccccc2)cc(Br)c1OC | 1.5 | -0.79
COc1ccc(-c2onc(C)c2C)cc1S(=O)(=O)N1CCN(C2CCCC2)CC1 | 1.9 | x
CCOc1ccc(-c2nc3cc(N)ccc3o2)cc1 | 3.6 | -1.6
CCOC(=O)NC(Nc1ccc(OC)cc1OC)(C(F)(F)F)C(F)(F)F | x | -0.95
COc1ccc(-c2csc3ncnc(NC(C)C)c23)cc1 | 1.1 | x
O=c1oc(-c2cccc(Br)c2)nc2ccccc12 | x | -1.3
CC1=C(c2ccc(C(C)C)cc2)S(=O)(=O)N=C1Nc1ccc(F)cc1F | 1.9 | -3.5
O=C1c2ccccc2-c2onc3c(N4CCN(c5ccccn5)CC4)cc(NCc4ccco4)c1c23 | 2.4 | 0.75
O=C(Nc1cccc(Cl)c1)N1Cc2cccn2-c2ccccc21 | 0.44 | 0.78
N/C(=N\O)c1ccc(Oc2ncc(C(F)(F)F)cc2Cl)cc1 | x | -1.6
Cc1cc(S(=O)(=O)Nc2ccc3[nH]c(=O)sc3c2)ccc1F | 0.52 | x
CCCCN(C)S(=O)(=O)c1ccc(-c2ccc(=O)[nH]n2)o1 | 1.1 | x
CCOC(=O)C1=C(C)NC2=C(C(=O)C(C(=O)OC)C(C)C2)C1c1ccc(C(=O)OC)cc1 (stereo unspecified) | 2.8 | -0.46
C=CCN1C=C(OC(=O)c2ccc(OC)cc2)c2ccccc2S1(=O)=O | -0.59 | -1.1
CC1CSc2ccc(S(=O)(=O)NCc3cccs3)cc2NC1=O (stereo unspecified) | 0.66 | x
Cc1nc2ccccn2c1-c1csc(Nc2ccc(Cl)cc2)n1 | 2 | -4

# Structural class: the entries above with a COOH group (3)
SMILES | TAR Tat displ | CDC25B-CDK2 inh
Cc1c(C(=O)O)oc2c1-c1nn(Cc3c(F)cccc3Cl)cc1CC2 | 1.6 | -0.12
O=C(O)CCSc1ncn[nH]1 | 1.4 | x
CC(C)C1=CC23CCC4C(C)(C(=O)O)CCCC4(C)C2CC1C1C(=O)N(c2cccc(C(=O)O)c2)C(=O)C13 (stereo unspecified) | x | -2.1

# The list goes on:
SMILES | TAR Tat displ | CDC25B-CDK2 inh
C=CCNc1ncnc2c1sc1nc(-c3ccco3)c3c(c12)CC(C)(C)OC3 | -1.5 | 0.3
COc1ccc(-c2nc3c(C#N)c[nH]n3c2NC2CCCC(C)C2C)cc1 (stereo unspecified) | 2 | -1.3
Cc1ccc(Nc2ncnc3onc(C)c23)cc1Cl | -1.5 | x
CCSc1ncc2c(=O)n(CC(=O)Nc3sc4c(c3C(=O)OC)CCCC4)cnc2n1 | 1.9 | x
Cc1ccc(-c2onc(C)c2C)cc1S(=O)(=O)N1CCN(c2ccccc2)CC1 | 2.1 | x

# Screening data: PubChem BioAssay, Center for Chemical Genomics, University of Michigan

# Outcome played no part in choosing rows; overall some 0.89% were active at least once.
